Compound activity: PubChem BioAssay, several laboratories
Mtb betalactam – beta-lactam sensitization of Mtb H37Rv; AID 434955; inhibition, % at 25 µM; 0.27% of 330,000 active; M. tuberculosis H37Rv growth with meropenem, percent inhibition; hits of this screen are not shown here;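 active = about 74% or more and at least 40 points above the plate without the antibiotic, then above 30% in a dose series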;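 also: growth measured after seven days incubation then overnight dye step; 0% = bacteria only wells and 100% = bacteria with antibiotic; twin plates without the antibiotic show which effects depend on it; some results filed as inactive read as strong as hits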
Arbovirus inh – blocks arbovirus infection. arbovirus infection cell-based antiviral screen. inhibition, % at 10 µM. 0.37% of 200,000 active. AID 1251;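 active = inhibition from about 30%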;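 also: bluetongue infection of BSR cells; cell survival read as ATP light after 72 h; 0% = infected wells without compound and 100% = uninfected wells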
YopH inh – blocks Yersinia enterocolitica YopH tyrosine phosphatase; fluorescence Ex485/Em525; inhibition, %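 (about 10 µM by stock and volumes)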; 0.16% of 140,000 active;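 active = inhibition of 50% or more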;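 also: controls were vehicle for no effect and minimum signal wells for full effect; inactives centre near -20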
RecA splice inh – blocks M. tuberculosis RecA intein splicing. cell-free RecA intein splicing, fluorescence. inhibition, %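 (about 9 µM by stock and volumes)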. P9WHJ3. 0.75% of 290,000 active; in the data active = inhibition above about 30%;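 also: 0% = vehicle wells and 100% = reference inhibitor control wells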
Target sequence (P9WHJ3 whole entry, looked up, canonical isoform): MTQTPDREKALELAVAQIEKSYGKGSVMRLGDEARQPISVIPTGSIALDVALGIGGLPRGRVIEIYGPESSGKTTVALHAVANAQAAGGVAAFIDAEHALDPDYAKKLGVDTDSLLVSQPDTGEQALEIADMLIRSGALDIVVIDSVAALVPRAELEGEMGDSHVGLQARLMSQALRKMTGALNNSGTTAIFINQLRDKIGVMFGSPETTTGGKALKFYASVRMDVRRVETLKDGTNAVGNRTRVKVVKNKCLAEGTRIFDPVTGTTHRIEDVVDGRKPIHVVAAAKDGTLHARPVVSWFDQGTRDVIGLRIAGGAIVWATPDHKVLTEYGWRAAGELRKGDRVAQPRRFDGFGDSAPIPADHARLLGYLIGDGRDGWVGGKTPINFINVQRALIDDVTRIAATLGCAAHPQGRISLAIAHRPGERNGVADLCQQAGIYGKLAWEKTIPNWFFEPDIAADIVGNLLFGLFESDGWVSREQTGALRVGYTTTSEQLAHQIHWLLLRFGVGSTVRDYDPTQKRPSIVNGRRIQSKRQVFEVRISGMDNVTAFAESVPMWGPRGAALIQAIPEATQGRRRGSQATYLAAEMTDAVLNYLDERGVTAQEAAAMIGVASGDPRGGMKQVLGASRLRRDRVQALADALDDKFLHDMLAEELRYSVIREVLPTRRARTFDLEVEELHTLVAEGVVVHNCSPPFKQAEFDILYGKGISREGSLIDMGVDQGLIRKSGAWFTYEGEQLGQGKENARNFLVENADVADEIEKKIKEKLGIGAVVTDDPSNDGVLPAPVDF
Mtb H37Rv – M. tuberculosis H37Rv growth inhibitors, H37Rv strain (AID 1626). 0.95% of 220,000 active. one-dose inhibition, % at 10 µM; IC50 in µM for titrated hits. M. tuberculosis H37Rv growth inhibition; higher % means a stronger effect;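 active = confirmed in a dose series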;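 also: bacteria incubated seven days before Alamar blue readout; 0% = bacteria only wells and 100% = bacteria with antibiotic wells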
Arbovirus inh repeat – also measured in Arbovirus inh; calls as there; inhibition, %; measured here: 10K subset replicate screen; many hits read low in the repeat;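 first of two repeat runs on a subset; 0% = infected and 100% = uninfected wells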
* = called active by the depositor; . = not tested or not shown.

SMILES	Mtb betalactam	Arbovirus inh	YopH inh	RecA splice inh	Mtb H37Rv	others
Cc1cc(C(=O)N2CCCC(C(=O)c3cccc(C(F)(F)F)c3)C2)n[nH]1 (centres undefined)	-6	.	.	2.5	.
Cc1ccc(CC(=O)Nc2ccc(C(=O)N3CCOCC3)cc2)cc1	-6	.	.	-1.6	.
Cc1onc(C(=O)N2CCN(c3ccccc3)CC2)c1[N+](=O)[O-]	9	.	.	1.7	.
Cc1ccc2c(c1)N(CC(=O)N1CCCCC1)C(=O)CO2	-1	.	.	-2.9	.
CCOc1ccc(CCNC(=O)CCS(=O)(=O)c2ccc(Cl)cc2)cc1OCC	-2	.	.	-0.2	.
CCCOc1ccccc1N1C(=O)CC(N2CCOCC2)C1=O (centres undefined)	2	5	12	.	-9%
CCCC(=O)Nc1ccccc1NC(=O)c1ccc2c(c1)OCO2	2	.	.	-3.0	.
CC(CCO)Nc1nc2c(c(=O)n(C)c(=O)n2C)n1Cc1cccc(Br)c1 (centres undefined)	1	-1	-17	-0.5	-8%
Cc1ccc(/C=N/NC(=O)c2nnn(-c3nonc3N)c2C(C)C)o1	7	.	.	7.6	.
CN1C(=O)/C(=C\c2ccccc2F)Sc2ccc(C(=O)NC3CCN(Cc4ccccc4)CC3)cc21	98	.	.	0.6	.
CCOC(=O)C1=C(c2cccc(F)c2)NC(=S)NC1C (centres undefined)	-12	-2	12	-0.3	.
Cc1ccc(-c2nnn(CC(=O)N(c3ccccc3)C(C(=O)NC(C)(C)C)c3cccs3)n2)o1 (centres undefined)	-3	-3	-7	-4.1	-2%
Cc1ccc(CN2CCN(Cc3ccccc3-c3ccco3)CC2CCO)o1 (centres undefined)	-13	19	.	-3.4	.
Cc1ccc(C)c(N=C2CCCN2Cc2ccccc2)c1C#N	13	9	-20	6.0	9%
CCOC(=O)c1ccc(Nc2ccc(-c3ccc(OC)c(OC)c3)nn2)cc1	57	-22	-39	.	.	Arbovirus inh repeat=-12
COc1cccc(-c2nnc(-c3ccc(C(F)(F)F)cc3)o2)c1	3	9	-27	0.9	-6%
O=C1NC(=O)/C(=C\c2cn(Cc3ccccc3F)c3ccccc23)N1	-8	-5	.	0.2	1%
COc1ccccc1C1=NOC(C)(c2nnc(-c3cccc(Cl)c3)o2)C1 (centres undefined)	4	.	.	4.6	-4%
Cc1cc(C(F)(F)F)cc(NNC(=O)NC(=O)c2ccc(Cl)cc2)n1	-2	.	.	-0.6	-9%
Cc1nc(SCC(=O)Nc2cc(C)on2)c2c3c(sc2n1)CCCC3	100	-19	-31	6.6	<0.2µM*
COc1ccc(CCNC(=O)c2cc(-c3ccccc3)c(N3CCOCC3)s2)c(OC)c1OC	2	.	.	0.9	.
CNC(=O)COC(=O)c1ccc2c(c1)S(=O)(=O)c1ccccc1C2=O	1	.	.	3.1	.
Cc1cc(Cl)ccc1OCCCC(=O)Nc1cccnc1	-1	9	-39	2.3	0%
COc1cc2c(cc1NC(=O)C(C)N1CCN(S(=O)(=O)c3ccccc3[N+](=O)[O-])CC1)oc1ccccc12 (centres undefined)	2	-3	-22	-4.1	-22%
Cc1c(Cl)c(C(=O)NC2C3CC4CC(C3)CC2C4)nn1C (centres undefined)	-20	2	-3	3.5	-5%
Cc1ccc(C(C(=O)NCCc2ccccc2)N(C(=O)c2csnn2)C2CC2)cc1 (centres undefined)	-5	.	.	-4.6	.
CNC(=O)COC(=O)CCC(=O)c1cccs1	-4	7	.	-3.9	-1%
Cc1nc2ccccc2n1Cc1ccccc1Br	-9	.	.	1.4	.
CCOC(=O)/C(C#N)=C(C)/C=C1\Sc2ccccc2N1CC	0	-19	-16	-3.3	6%
COc1ccc([C@H]2/C=C\CN(C(=O)CC(C)(C)C)[C@@H](C)C(=O)N2Cc2ccc(F)cc2)cc1	-1	.	.	0.1	-3%
N[C@@]12CCc3nonc3[C@]1(O)CC(c1ccccc1)=[N+]2[O-]	-1	1	-27	-1.2	-4%
CCCCc1nnc(SCC(=O)Nc2nccs2)n1CC	-11	.	.	-2.9	.
Cc1ccc(C(=O)C2CCN(CC(=O)Nc3ccc4c(c3)OCCO4)CC2)cc1	60	-3	-5	3.7	14%
Clc1c(-c2nnc3n2CCC3)sc2ccccc12	85	7	-50	1.7	2%
CC(Sc1nnc(-c2ccco2)n1C)C(=O)N(C)C1CCCCC1 (centres undefined)	-2	.	.	0.3	.
COc1ccc(CNC(=O)C(OC(=O)c2ccco2)c2ccc(OC)cc2)cc1 (centres undefined)	7	2	-11	0.6	13%
CCOC(=O)N1CCN(S(=O)(=O)c2cc([N+](=O)[O-])ccc2C)CC1	3	4	.	0.0	0%
CNC(=O)C1CCCN1S(=O)(=O)c1ccc(OC)cc1 (centres undefined)	-1	16	-4	-4.1	-2%
CC1(C)OC(=O)C2(Cc3ccccc3N3CCCCC32)C(=O)O1 (centres undefined)	-8	5	-45	.	5%
O/N=C(\c1ccc(Cl)cc1Cl)c1ncc(C(F)(F)F)cc1Cl	-9	-45	-22	2.8	-13%
COc1ccc(C(=O)OCC(=O)NC2CCCC2)cc1OC	4	.	.	-1.0	.
COc1ccc(CNC(C)(C)C)cc1Cl	-1	4	-2	1.0	-1%
CCCCOC(=O)Nc1ccccc1C(=O)OC	-12	11	5	0.2	-10%
Cc1c(Cl)cccc1N1C(=O)C(N2C(=O)c3cccc([N+](=O)[O-])c3C2=O)C1c1cccs1 (centres undefined)	-4	-2	8	5.6	0%
COC(=O)c1c(NC(=S)Nc2ccc(CC(=O)O)cc2)sc(C)c1C	1	1	-22	-1.3	-5%
COc1ccc2c(c1)C(NC(C)=O)C(=O)N2CCc1ccccc1 (centres undefined)	-1	13	.	-1.3	2%
C1CN(c2nc3nonc3nc2N2CCSCC2)CCO1	-4	.	.	-2.8	0%
Cc1cc(C(F)(F)F)c(C#N)c(=O)[nH]1	16	3	-36	.	4%
O=C(CSc1nnc(C2CC2)n1Cc1ccccc1)N1CCN(S(=O)(=O)c2ccccc2)CC1	-13	1	-21	4.4	-8%
COc1ccc(-c2sc3ccccc3c2C#CCO)cc1	93	.	.	-4.5	.
COc1ccccc1Oc1cn[nH]c1-c1ccc(OCC(=O)NN)cc1O	0	.	.	0.4	.
COCC(=O)Nc1ccc(S(=O)(=O)Nc2ccccn2)cc1	3	10	.	-2.3	-2%
CC1(C)C(=O)N(OCc2ccccc2)C(C)(C)C(=O)N1OCc1ccccc1	-4	4	-20	2.6	.
CN(C)CCN1C(=O)C(=O)/C(=C(/O)c2ccc(S(=O)(=O)N3CCOCC3)cc2)C1c1ccc(Br)cc1 (centres undefined)	-18	.	.	1.4	.
CCOCCCNC(=O)CSc1nc2nc(C)c(Cc3ccccc3)c(C)n2n1	-4	7	.	-0.7	-13%
COC(=O)c1cc(COc2ccc3ccc(=O)oc3c2)c(C)o1	3	7	-19	-4.1	-1%
Cc1oc(/N=C/c2ccc(O)cc2O)c(C#N)c1C	8	-6	.	-14	-7%
COc1ccc(CC(NC(C)=O)C(=O)NC2CCN(C(=O)C3CC3)CC2)cc1OC (centres undefined)	2	-1	.	-1.3	-10%
CCOC(=O)N1CCN(C(=O)c2ccc3c(=O)n(-c4ccc(OC)cc4OC)c(=S)[nH]c3c2)CC1	-2	-4	-30	1.6	.
Cc1nnc2ccc(N3CCN(c4ccccn4)CC3)nn12	-10	-1	-48	-6.9	-9%

Of the compounds above, these contain a CF3 group.
SMILES	Mtb betalactam	Arbovirus inh	YopH inh	RecA splice inh	Mtb H37Rv	others
Cc1cc(C(=O)N2CCCC(C(=O)c3cccc(C(F)(F)F)c3)C2)n[nH]1 (centres undefined)	-6	.	.	2.5	.
COc1cccc(-c2nnc(-c3ccc(C(F)(F)F)cc3)o2)c1	3	9	-27	0.9	-6%
Cc1cc(C(F)(F)F)cc(NNC(=O)NC(=O)c2ccc(Cl)cc2)n1	-2	.	.	-0.6	-9%
O/N=C(\c1ccc(Cl)cc1Cl)c1ncc(C(F)(F)F)cc1Cl	-9	-45	-22	2.8	-13%
Cc1cc(C(F)(F)F)c(C#N)c(=O)[nH]1	16	3	-36	.	4%

The list goes on.
SMILES	Mtb betalactam	Arbovirus inh	YopH inh	RecA splice inh	Mtb H37Rv	others
O=C(Cn1cc(C(=O)c2ccco2)c2ccccc21)Nc1ccccc1	-7	2	-9	-1.2	9%
CCN(c1cc(C)cc(C)c1)S(=O)(=O)c1nnc(NC(=O)c2ccco2)s1	25	.	.	-1.9	.
CCCC[N+]12CCC(CC1)C(C(=O)c1cccs1)C2 (centres undefined)	-10	-2	-9	-1.2	-4%
COc1ccc(N/C=C\C(=O)c2ccc3c(c2)OCO3)cc1OC	22	-12	-30	-3.0	24%
O=[N+]([O-])c1ccc(Cl)c(CN2CCCCCC2)c1	5	.	.	0.4	.
Cc1ccc(NC(=O)CCS(=O)(=O)c2cccc3nonc23)cc1Cl	39	.	.	0.0	.
O=C(O)C1CCCCC1C(=O)NCc1ccc2c(c1)OCO2 (centres undefined)	-2	2	.	-0.1	0%
COc1ccc(/C=N/N=C2/NC(=O)C(CC(=O)O)S2)cc1OCc1ccc(Cl)cc1Cl (centres undefined)	2	-10	-4	7.0	7%
Clc1cccc(Cl)c1CNc1ccc(N2CCCC2)cc1	89	-1	.	9.4	63%
Cc1ccc(NS(=O)(=O)c2c(C)nc3sccn3c2=O)cc1	-7	.	.	-2.7	.
CC(C)NC(=O)NNC(=O)c1cc(COc2cc(Cl)cc(Cl)c2)on1	-8	.	.	16	-6%
NC(=O)CSc1nc2sc3c(c2c2ncnn12)CCCC3	6	-15	-51	2.1	2%
Cc1ccc2[nH]c(=O)c(CN(Cc3nnnn3C3CCCC3)C3CCCCC3)cc2c1	-1	5	-32	-4.3	19%
CCn1c(CNC(=O)c2cccc(C)c2)nnc1SCC(=O)NC1=NCCS1	-7	.	.	0.0	.
O=[N+]([O-])c1ccc(N2CCNCC2)cc1NCc1cccnc1	-5	-10	-24	1.6	-3%
Cc1c(NC(=O)COC(=O)c2cc(-c3cccc4ccccc34)nc3ccccc23)c(=O)n(-c2ccccc2)n1C	0	4	-3	4.5	-4%
Cc1ccc(CCNC(=O)CS(=O)Cc2nc(-c3cccc(C)c3)oc2C)cc1 (centres undefined)	0	0	.	4.6	-2%	Arbovirus inh repeat=-2
Cc1ccc(C)n1-c1ccc(N2CCOCC2)c([N+](=O)[O-])c1	-8	.	.	-0.3	2%
CCN(CC)c1ccc(NC(=O)COc2ccccc2C)cc1S(=O)(=O)Nc1ccccc1OC	1	-5	-29	4.3	20%
CC1CCN(S(=O)(=O)c2ccc(NC(=O)CN3CCN(C)CC3)cc2)CC1	3	4	-34	0.1	-6%

Molecules listed so far with a cyano group:
SMILES	Mtb betalactam	Arbovirus inh	YopH inh	RecA splice inh	Mtb H37Rv	others
Cc1ccc(C)c(N=C2CCCN2Cc2ccccc2)c1C#N	13	9	-20	6.0	9%
CCOC(=O)/C(C#N)=C(C)/C=C1\Sc2ccccc2N1CC	0	-19	-16	-3.3	6%
Cc1cc(C(F)(F)F)c(C#N)c(=O)[nH]1	16	3	-36	.	4%
Cc1oc(/N=C/c2ccc(O)cc2O)c(C#N)c1C	8	-6	.	-14	-7%

Additional records:
SMILES	Mtb betalactam	Arbovirus inh	YopH inh	RecA splice inh	Mtb H37Rv	others
COc1ccc(Nc2ncc3c(n2)CC(c2ccccc2)CC3=O)cc1 (centres undefined)	10	-5	-25	-0.9	7%
CC(C)C[C@H](NC(=O)c1cc2cc(Cl)ccc2n1C)C(=O)N1CCC(C(=O)O)CC1	-5	.	.	2.0	.
Cc1cc(NC(=O)CSCC(=O)N2CCN(c3cccc(C(F)(F)F)c3)CC2)no1	2	.	.	-2.6	.
Cc1ccc(-c2nn(-c3ccccc3)cc2/C=N/n2c(-c3ccncc3)n[nH]c2=S)cc1	6	.	.	2.4	3%
CCN(CC)C(=O)C(=O)Nc1ccc(Oc2ccccc2)cc1	1	-10	.	1.8	14%
COC(=O)c1nc2nc(-c3cccs3)cc(C(F)(F)F)n2n1	3	8	-33	-20	1%
COc1ccc(CNC(=O)c2cc(S(=O)(=O)N3CCOCC3)cn2C)cc1	0	.	.	-2.5	.
CC(C)(C)C1CCC(OC(=O)CN2CCOCC2)CC1 (centres undefined)	-9	5	-18	3.2	-3%
c1ccc(-c2csc(N3CCN(c4ccccn4)CC3)n2)cc1	67	-2	-22	7.3	-1%
O=C(CCC1CCCN(C(=O)c2ccc3c(c2)OCO3)C1)N1CCN(c2ccccn2)CC1 (centres undefined)	-8	-16	.	-2.2	-3%
CCCc1nc(S(=O)(=O)Cc2ccc(Cl)cc2Cl)n[nH]1	10	3	-47	-4.3	2%
COc1cc(-c2nn3c(C4CCCCC4)nnc3s2)cc(OC)c1OC	84	-11	-53	0.4	29%
CC(C)CCn1nnnc1C(c1ccc(N(C)C)cc1)N1CCN(C(=O)c2ccco2)CC1 (centres undefined)	-5	4	-25	2.5	-5%
Cc1nn(C(=O)CCC(=O)NCc2ccc(OC(C)C)cc2)c2ccccc12	0	.	.	0.3	.

Some of the compounds tested, so the mix of outcomes need not match the whole.
